Source: PubChem (several laboratories)
ugtP null kill: growth inhibition of ugtP-null S. aureus, primary screen, RN4220 ugtP deletion, OD600. 330,000 tested, 0.54% active. growth inhibition, % (no concentration beside the values). AID 1259309, 2017. 16 h; some inactives read as strong as hits;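 active means z-score under -3 and OD600 up to 0.15 on both plates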;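 further: plate controls were untreated wells for no effect and antibiotic for full effect; wells of about 80 µL received 100 nL stock; the first replicate is given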
BJeLR lethal: MLPCN primary cell-based screen for lethality selective to Ras in HRASV12 cells; BJeLR (HRASV12) viability, CellTiter-Glo ATP luminescence, 48 h; reference of the scale not given here; inhibition, % (concentration not given with the values); 300,000 tested, 0.17% active;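 active means replicate mean above 50%; inconclusive means above 50% but judged a plate artefact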;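 further: 50 nL library stock added to about 25 µL; numbers are from one replicate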
PrP 5UTR inh: inhibition of PrP 5' UTR reporter expression; inhibition, % (no concentration beside the values); cell-based PrP 5' UTR mRNA reporter, plate reader; 340,000 tested, 0.35% active;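 active means every replicate at 50% or more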;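 further: 0 = median of the neutral control wells; tested in H4 reporter cells; numbers are from one replicate; inactives centre near -14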
Sa RN4220 lethal: growth inhibition of S. aureus RN4220, primary screen, OD600. 16 h. inhibition, % (concentration not given with the values). 330,000 tested, 0.33% active. AID 1259311, 2017;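 active means z-score of -3 or lower and OD600 up to 0.18 on both plates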;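 further: plate controls were untreated cells for no effect and reference antibiotic for full effect; stock transfer was 100 nL into about 80 µL; one replicate is shown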
Autofluor counter: compound fluorescence in toxin protease inhibitor counterscreen. AID 624483. 360,000 tested, 3.1% active. compound autofluorescence counterscreen, microsphere flow cytometry; hits give high values. fluorescence intensity (test concentration not listed);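 active means at least 3 SD above the mean of all compounds, about 16000 in these data; inconclusive means too few beads counted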;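 further: 100 nL of 1 mM stock went into each well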
Mtb hypoxia rep: PubChem AID 1159583. M. tuberculosis hypoxia-regulated fluorescent reporter, fluorescence. fluorescence inhibition, % (test concentration not listed). 300,000 tested, 0.1% active;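 active means 35 to 45% if threefold the growth effect, above 45% if 1.5-fold the growth effect; inactive means the rest, general growth blockers included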;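 further: wells of about 50 µL received 100 nL stock; 0% = vehicle wells and 100% = reference inhibitor wells; whole bacteria with a GFP reporter of the hypoxia response; strong numbers were not always called active; many hits fall short of the cut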
Mtb hypoxia rep growth: second read-out of Mtb hypoxia rep, no call of its own (marks repeat the call); growth inhibition, %; measured here: M. tuberculosis growth (absorbance);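 0% = vehicle and 100% = reference antibiotic; read after six days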
An asterisk follows results filed as active; ? = inconclusive; nt = no result given.

SMILES | ugtP null kill | BJeLR lethal | PrP 5UTR inh | Sa RN4220 lethal | Autofluor counter | Mtb hypoxia rep | Mtb hypoxia rep growth
Cn1c(=O)c(N=O)c(N)n(Cc2ccccc2)c1=S | 6 | -8 | -30 | 8.2 | 3863 | -4 | -4
c1ccc2[nH]c3cc4ncnc4cc3nc2c1 | -4 | -1 | -46 | 23 | 2613 | nt | nt
Cc1ccc(-c2nnn(CC(=O)N(Cc3ccccc3F)C(C(=O)NC3CCCC3)c3ccncc3)n2)o1 (configuration not stated) | -4 | -1 | -22 | 2.4 | 5375 | nt | nt
CCN(CC)c1ccc(S(=O)(=O)N2CCOCC2)cc1NC(=O)COC(=O)c1cccnc1SC | 4 | -15 | -19 | 5.8 | 8311 | 0 | 7
CCOC(=O)[C@@H]1[C@H]2COc3ccc(Br)cc3[C@@H]2N2C(=O)N(c3cccc(C)c3)C(=O)[C@]12C | nt | -18 | -14 | nt | 3015 | nt | nt
CCOC(=O)N1CCN(C(=O)c2oc3ccc(S(=O)(=O)N4CC(C)CC(C)C4)cc3c2C)CC1 (configuration not stated) | -1 | 6 | -4 | 8.0 | 3464 | 4 | 6
COC(=O)C(C)C1Sc2ccccc2NC1=O (configuration not stated) | 4 | -3 | -10 | 2.7 | 3190 | 3 | 13
CN1CCc2c(sc(NC(=O)c3cc(Cl)sc3Cl)c2C(N)=O)C1 | -1 | -2 | nt | 4.9 | 4361 | 14 | 16
CCOc1ccc(N(C)S(=O)(=O)c2cc(-c3cc(C)no3)ccc2CC)cc1 | 17 | 6 | -15 | 11 | 5801 | 11 | 16
COc1cc(NC(=O)c2cc(-c3ccco3)on2)cc(OC)c1OC | 0 | -6 | -4 | 2.1 | 3245 | -3 | -6
Cn1c(=O)c2c(nc(SCCCC#N)n2Cc2ccccc2F)n(C)c1=O | -2 | 8 | -7 | 3.1 | 6174 | nt | nt
Cn1nccc1C(=O)N1CCCC(C(=O)c2ccc(C(F)(F)F)cc2)C1 (configuration not stated) | 3 | 2 | -25 | 3.2 | 4132 | 0 | 8
CCN1CCN(c2ccc(S(=O)(=O)N3CCOCC3)cc2NC(=O)c2ccccc2OC(F)F)CC1 | 6 | 1 | -15 | 2.8 | ? | 7 | 0
O=C(NNCc1ccccc1)c1ccccn1 | -7 | nt | -87 | -2.4 | 4114 | 4 | 3
CS(=O)(=O)N(CC(=O)N1CCOCC1)Cc1ccc(Cl)cc1 | 4 | -2 | -13 | -2.4 | 5050 | nt | nt
CCOC(=O)N1CCN(C(=S)NC2CCCC2)CC1 | 7 | 6 | -25 | 4.3 | 2457 | 2 | -4
COc1ccc(-n2ncc3c(N(C)C4CCCCC4)ncnc32)cc1 | 5 | 9 | 78* | 0.7 | 5370 | 0 | 14
O=C(Cc1ccc(Cl)cc1)Nc1ccccc1C(=O)N1CCCCC1 | 4 | 2 | -8 | 1.4 | 4815 | 1 | 1
Cc1cc(C)cc(OCCNC(=O)C2CCN(S(=O)(=O)c3ccccc3)CC2)c1 | 4 | 3 | -9 | 3.6 | 7027 | 13 | 10
CCc1nc(N2CCN(C(=O)c3ccccc3)CC2)c(C#N)c2c1COC(C)(C)C2 | 4 | nt | -7 | 3.0 | 3671 | nt | nt
COC(=O)c1ccc(NC(=O)c2cnc3scc(C)n3c2=O)cc1 | 2 | -8 | nt | 3.1 | nt | 6 | 3
CN1CCN(S(=O)(=O)c2cc(Cl)c(Cl)cc2Cl)CC1 | 2 | 1 | -141 | 1.1 | 3727 | 2 | 1
CC(=O)N1CCN(CCN=Cc2c(O)n(-c3ccc(C)cc3)c(=S)[nH]c2=O)CC1 | 14 | -10 | -13 | 3.7 | 2919 | 1 | -5
Cc1ccc(-c2c(C(=O)O)c(C(=O)O)c3n2CCC3)cc1 | 6 | nt | -8 | 0.1 | 2231 | 3 | 9
COc1ccccc1OC(C)c1nnc(SCC(=O)Nc2c(C)n(C)n(-c3ccccc3)c2=O)n1-c1ccccc1 (configuration not stated) | 8 | -7 | -30 | 2.0 | 21279* | 5 | 1
CC(C)(C)OC(=O)N1CCC(c2c(C(=O)N3CCN(C4CCCCC4)CC3)cnn2-c2ccc(F)cc2)CC1 | 0 | -3 | 1 | -0.1 | 6024 | 0 | 0
CNC(=O)CS(=O)(=O)CC(=O)Nc1cc(OC(C)C)c(Cl)cc1Cl | 1 | -3 | -18 | 0.4 | 4501 | -4 | 1
COc1ccc(NC(=O)N/C=C/c2ccco2)cc1 | nt | -1 | -15 | nt | 4199 | nt | nt
CC(C)(C)c1ccc(NC(=O)Cn2cnc3cc([N+](=O)[O-])ccc3c2=O)cc1 | 9 | 2 | -20 | 5.1 | 5161 | 6 | 1
COc1cc2c(cc1OC)CN(C(=O)Cc1ccc(OC)c(S(=O)(=O)N3CCOCC3)c1)CC2 | -12 | -2 | -1 | -2.7 | 4795 | nt | nt
COC1C=C2CCN(C)C2C2c3cc4c(cc3C(=O)OC12)OCO4 (configuration not stated) | -7 | nt | nt | 6.8 | nt | 3 | -2
C#CCOCCOCCOCCNc1nc(N2CCN(C(=O)C(CCC(=O)O)n3cc(C(N)Cc4ccc(O)cc4)nn3)CC2)nc(N2CCN(C(=O)C(CCC(=O)O)n3cc(C(N)CC(C)C)nn3)CC2)n1 (configuration not stated) | 2 | nt | nt | 6.0 | nt | 4 | -8
CCN(CC)S(=O)(=O)c1cccc(NC(=O)CSc2nc3ccccc3[nH]2)c1 | 6 | 5 | -17 | 4.4 | 2216 | 8 | -2
COc1ccc(CCNC(=O)C2CCCN(S(=O)(=O)c3ccc(F)cc3)C2)cc1 (configuration not stated) | 3 | -6 | -29 | -1.1 | 4732 | 1 | 0
COc1cccc(-c2n[nH]c(=S)n2Cc2ccco2)c1OC | 3 | 6 | -11 | 3.1 | 20736* | 3 | -1
CNc1nc(N)c([N+](=O)[O-])c(Nc2ccccc2OC)n1 | 9 | -5 | -10 | -1.1 | 2859 | 17 | 9
Cc1ccc(S(=O)(=O)N2CCOCC2)cc1C(=O)Nc1ccccn1 | 2 | -9 | -12 | -0.5 | 4709 | nt | nt
O=C(Cn1c(C(=O)NCc2ccco2)cc2sccc21)c1ccccc1 | -2 | 12 | -14 | 1.7 | 7854 | -18 | -1
Cc1cc(NC(=O)CSc2nc3sc(C)c(C)c3c(=O)n2C2CCCC2)no1 | -2 | -15 | -7 | 4.4 | 7778 | 9 | -2
O=C(CCn1nnc2ccccc21)N1CCC(O)(c2cccc(F)c2)CC1 | 6 | 2 | -5 | 1.7 | 3690 | nt | nt
O=C(OCCN1CCCCC1)c1ccccc1Br | 7 | 1 | -7 | 3.5 | 3696 | -6 | 6
O=C(Cc1cccs1)Nc1ccc(F)cc1 | 5 | -2 | -24 | 3.5 | 3809 | 5 | 3
Cc1ccc(-c2csc3ncnc(NCCC(=O)O)c23)cc1 | nt | 2 | -11 | nt | 3756 | nt | nt
CC(=O)N1CCc2cc(N=NC3=C(O)CC(C)(C)CC3=O)ccc21 | -2 | 1 | -90 | -3.5 | 4442 | 13 | 6
Cc1cccc(NC(=O)CC2(CC(=O)O)CCCC2)c1 | -5 | 10 | -11 | -1.4 | 3327 | -9 | 6
Cc1cc(C)nc(CCNC(=O)CC2C(=O)NCCN2Cc2ccccc2)n1 (configuration not stated) | -5 | 0 | 2 | -3.4 | 5834 | -8 | -2
CC1=C(C(=O)OCc2ccccc2)C(c2ccccc2OS(=O)(=O)c2ccc([N+](=O)[O-])cc2)NC(=O)N1CCCC(=O)O (configuration not stated) | 24 | -13 | -10 | -19 | 2844 | 7 | 5
C=CCn1c(SCC(=O)Nc2ccc3c(c2)OCO3)nnc1-c1ccccc1O | -3 | -14 | -2 | 9.7 | 7866 | -3 | 3
C=CCN1C(=O)CN=C1Nc1ccccc1 | 3 | 2 | 1 | 0.6 | 4062 | 5 | 4
Cn1c(=O)c2c(-c3ccccc3)n(N3CCOCC3)cc2n(C)c1=O | 0 | 0 | -5 | 3.1 | 2427 | 8 | 8
O=C(OC1CCN(c2ccc([N+](=O)[O-])cc2)CC1)c1ccccc1 | -4 | 4 | -7 | 5.8 | ? | 3 | 1
O=C(NNC(=O)c1cccs1)c1ccc(Cl)c(Cl)c1 | nt | -2 | -17 | nt | 2006 | nt | nt
CCn1cc(C(=O)NCc2ccncc2)c(=O)c2cc(F)c(N3CCN(C(=O)c4ccco4)CC3)cc21 | 54 | -1 | nt | 20 | 5432 | 9 | 1
COC(=O)c1[nH]c2ccccc2c1NC(=O)/C=C/c1ccc2c(c1)OCO2 | nt | -3 | -15 | nt | 10920 | nt | nt
CCC1(C)Cc2c(sc3nc(NC)n(C)c(=O)c23)CO1 (configuration not stated) | 0 | -1 | -20 | 8.6 | 2803 | 3 | 5
Cc1ccc(C)c(N(CC(=O)Nc2cc(Cl)ccc2Oc2ccccc2)S(C)(=O)=O)c1 | -6 | -6 | -2 | -0.1 | 4619 | nt | nt
Cc1ccc(NC(=O)CN2CCN(C)CC2)cc1Br | 1 | -1 | -3 | 3.2 | 3949 | 8 | 8
O=C(/C=C/c1ccc(Cl)cc1)N(Cc1ccccc1)c1ccccn1 | nt | 10 | -25 | nt | 2083 | nt | nt
CC12CCCCC1NS(=O)(=O)OC2 (configuration not stated) | nt | 5 | -12 | nt | 3702 | nt | nt
CS(=O)(=O)NC1c2cccc3cccc(c23)C1Sc1nncn1N=Cc1ccco1 (configuration not stated) | 2 | nt | nt | -1.8 | nt | 2 | 0

A few values from above.
`CCN(CC)S(=O)(=O)c1cccc(NC(=O)CSc2nc3ccccc3[nH]2)c1` @ Sa RN4220 lethal = 4.4
`COC(=O)c1[nH]c2ccccc2c1NC(=O)/C=C/c1ccc2c(c1)OCO2` @ BJeLR lethal = -3

(more compounds)
SMILES | ugtP null kill | BJeLR lethal | PrP 5UTR inh | Sa RN4220 lethal | Autofluor counter | Mtb hypoxia rep | Mtb hypoxia rep growth
O=C(Nc1nc2cc3c(cc2s1)OCCO3)c1ccc(N2C(=O)CCC2=O)cc1 | -6 | 2 | -15 | 4.2 | nt | 5 | -5
CCCCOC(=O)CSc1n[nH]c(=O)[nH]c1=O | 1 | 8 | -10 | 2.3 | 23897* | 5 | 13
O=C(O)Cc1ccc(NC(=O)Nc2ccc3c(c2)OCO3)cc1 | 11 | -13 | -31 | 6.3 | 4660 | 6 | 3
CSC(C1CCCC1)n1nnc2ccccc21 (configuration not stated) | -13 | 0 | -17 | -18 | 3583 | 8 | 10
CNC(=O)/C(C#N)=C/c1ccc(-c2ccc(Cl)cc2)o1 | -10 | 4 | -73 | 6.0 | ? | -2 | -6
Cc1ccccc1S(=O)(=O)Cc1ccc(C(=O)NC2CCCCC2)o1 | -1 | 0 | 1 | 3.0 | 5017 | 12 | 16
Clc1ccc(-c2cnc3ccccc3n2)cc1 | -8 | -3 | -77 | 7.2 | 2211 | 0 | 1
Nc1nc(NC(=O)/C=C\C(=O)O)nn1-c1ccccc1 | 0 | 5 | -1 | 5.9 | 4649 | 8 | -1

One compound at a time, as listed above.
Nc1nc(NC(=O)/C=C\C(=O)O)nn1-c1ccccc1 is listed with ugtP null kill: 0; BJeLR lethal: 5; PrP 5UTR inh: -1; Sa RN4220 lethal: 5.9; Autofluor counter: 4649; Mtb hypoxia rep: 8; Mtb hypoxia rep growth: -1
O=C(Nc1nc2cc3c(cc2s1)OCCO3)c1ccc(N2C(=O)CCC2=O)cc1 is listed with ugtP null kill: -6; BJeLR lethal: 2; PrP 5UTR inh: -15; Sa RN4220 lethal: 4.2; Autofluor counter: nt; Mtb hypoxia rep: 5; Mtb hypoxia rep growth: -5

Given with two lines to a compound: five of the compounds above.
Sequence of screens: ugtP null kill, BJeLR lethal, PrP 5UTR inh, Sa RN4220 lethal, Autofluor counter, Mtb hypoxia rep, Mtb hypoxia rep growth
- O=C(O)Cc1ccc(NC(=O)Nc2ccc3c(c2)OCO3)cc1
  11, -13, -31, 6.3, 4660, 6, 3
- Clc1ccc(-c2cnc3ccccc3n2)cc1
  -8, -3, -77, 7.2, 2211, 0, 1
- O=C(Nc1nc2cc3c(cc2s1)OCCO3)c1ccc(N2C(=O)CCC2=O)cc1
  -6, 2, -15, 4.2, nt, 5, -5
- Nc1nc(NC(=O)/C=C\C(=O)O)nn1-c1ccccc1
  0, 5, -1, 5.9, 4649, 8, -1
- CSC(C1CCCC1)n1nnc2ccccc21 (configuration not stated)
  -13, 0, -17, -18, 3583, 8, 10
